GALR2 ag – activates the human galanin receptor 2 | GALR2-expressing cells, agonist activation read-out | activation, %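 (tested at 5 µM)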 | 0.48% of 140,000 active | AID 803;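 active = above mean plus 3 SD of all compounds, about 5% in these data, not always enough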;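 note: 0% = vehicle buffer wells and 100% = reference agonist at full effect; tested in CHO reporter cells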
Target sequence (O43603 whole entry, looked up): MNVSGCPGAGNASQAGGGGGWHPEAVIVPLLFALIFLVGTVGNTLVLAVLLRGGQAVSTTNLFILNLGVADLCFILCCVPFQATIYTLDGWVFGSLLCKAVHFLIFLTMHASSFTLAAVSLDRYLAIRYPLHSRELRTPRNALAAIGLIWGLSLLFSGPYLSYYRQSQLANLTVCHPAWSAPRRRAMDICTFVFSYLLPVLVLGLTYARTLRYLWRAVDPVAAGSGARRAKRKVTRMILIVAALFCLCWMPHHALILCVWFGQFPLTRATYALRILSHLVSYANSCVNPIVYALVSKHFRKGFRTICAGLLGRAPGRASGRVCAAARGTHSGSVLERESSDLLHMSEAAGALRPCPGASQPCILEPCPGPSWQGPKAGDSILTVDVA
HSV augment – HSV replication enhancement; 0.005% of 220,000 active; HSV replication augmentation in cells, fold increase; maximum fold increase;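 active = peak rise of 1.5-fold or more in the series; tested in PC3 cells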;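 note: first round at 10 µM; read as green reporter fluorescence; hits show the peak of a series up to 25 µM; 1 = signal of infected wells without compound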
PKD1 inh – blocks activity of human protein kinase D1; Q15139; PKD1 kinase fluorescence polarization assay; inhibition, %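 (about 10 µM by stock and volumes)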; 0.056% of 200,000 active; AID 797;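 active = inhibition of 50% or more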;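 note: controls were vehicle for no effect and a reference inhibitor for full effect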
RGS16-Gao HTS – regulators of human RGS16-Galphao interaction. O15492+P09471. bead-based flow cytometry RGS16-Galphao binding, fluorescence; actives lie on both sides. binding response (% of control), % at 10 µM. 0.38% of 220,000 active. AID 1441;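 active = below 25% or above 175%, edge rows of some plates excepted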;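 note: Galphao activated by GDP with aluminum fluoride before binding; 100% = wells without compound and 0% = beads without RGS; some results beyond the cut were filed as inactive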
Target sequence (O15492 whole entry, looked up): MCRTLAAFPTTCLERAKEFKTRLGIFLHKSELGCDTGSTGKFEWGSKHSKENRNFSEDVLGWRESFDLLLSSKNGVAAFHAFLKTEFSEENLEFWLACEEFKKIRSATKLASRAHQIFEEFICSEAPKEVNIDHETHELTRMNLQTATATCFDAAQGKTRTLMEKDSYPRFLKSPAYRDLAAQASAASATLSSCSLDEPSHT
Target sequence (P09471 whole entry, looked up): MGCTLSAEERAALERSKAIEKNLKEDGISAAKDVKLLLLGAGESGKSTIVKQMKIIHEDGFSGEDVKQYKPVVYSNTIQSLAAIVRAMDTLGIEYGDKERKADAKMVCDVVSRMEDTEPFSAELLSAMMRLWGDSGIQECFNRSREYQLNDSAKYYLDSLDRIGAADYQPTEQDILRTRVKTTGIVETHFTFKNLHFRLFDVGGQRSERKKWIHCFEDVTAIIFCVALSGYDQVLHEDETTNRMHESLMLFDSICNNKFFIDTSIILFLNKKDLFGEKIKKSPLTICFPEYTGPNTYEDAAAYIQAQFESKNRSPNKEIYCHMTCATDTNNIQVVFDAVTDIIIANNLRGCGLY
Insulin prom inh – TRM-6 insulin promoter activity inhibition | inhibition, % at 2 µM | 0.9% of 130,000 active | TRM-6 cells (human fetal islet line), insulin promoter-eGFP reporter, imaging; reporter expression induced with tamoxifen;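 active = inhibition above the mean plus 3 SD, with well images judged a real hit on visual review, cut at about 60% in these data, passing the limit was not always enough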
Insulin prom inh cell count – recorded beside Insulin prom inh, whose call it bears; normalized cell count, %; measured here: cell count, toxicity; reference of the scale not given here;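 cells exposed to compound for 48 h; stained nuclei by imaging scaled within each plate; lower means fewer cells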
HSV augment primary fold – recorded beside HSV augment, whose call it bears; fold increase; compound at 10 µM; measured here: primary screen fold increase 10 uM; tested in PC3 cells;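 GFP signal in the first replicate; 1 = infected wells without compound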
An asterisk follows results filed as active; i = inactive; x = not tested or not shown.

SMILES	RGS16-Gao HTS	GALR2 ag	Insulin prom inh	HSV augment primary fold	HSV augment	Insulin prom inh cell count	PKD1 inh
CC(C)=CCCC1(C)C=Cc2c(c(C)cc3c2[nH]c2cc(O)ccc23)O1 (stereo not drawn)	103	x	x	0.9	i	x	x
COC(=O)CSc1nnc(CNc2ccc(Cl)cc2)n1-c1ccccc1	74	-0.4	-17	1	i	77	-3
O=C(NCc1cccs1)c1noc2c1CCCC2	99	-0.8	19	0.54	i	98	-7
Cc1ccccc1-c1nc(SCc2ccccn2)c2c(=O)n(C)c(=O)n(C)c2n1	98	x	x	1	i	x	-6
COc1ccc(NC(=O)C2=Cc3ccccc3OC2)cc1	100	x	x	0.94	i	x	4
CCOC(=O)c1[nH]c(C)c(C(=O)NCc2ccc(OC)cc2)c1C	105	-2.4	x	0.9	i	x	2
O=S(=O)(N/N=C/c1c(F)cccc1Cl)c1ccccc1	96	-1.5	42	0.88	i	137	4
O=C(c1ccc(-n2cccc2)cc1)N1CCCCC1	98	x	x	1.1	i	x	1
CCn1c(SCC(=O)NCCc2ccc(OC)c(OC)c2)nc2c1c(=O)n(C)c(=O)n2C	101	-2.4	x	0.9	i	x	-5
Brc1cc2c(cc1Cn1c(-c3cncs3)nc3ccccc31)OCO2	93	-0.1	40	1.1	i	121	0
O=C(Cn1nc([N+](=O)[O-])nc1Br)NC(c1ccccc1)c1ccccc1	30	-0.6	x	0.88	i	x	-7
CCCCOC(=O)CCNc1n[nH]c(=O)[nH]c1=O	89	-2.9	33	0.97	i	93	-7
O=[N+]([O-])c1cccc(N/N=C/c2cccc3ccccc23)c1	100	-2.1	27	0.99	i	76	8
Cc1ccc(CNC(=O)CCNS(=O)(=O)c2ccc(C)cc2)cc1	108	-2.1	-17	0.99	i	130	2
CCNC(=S)N/N=C/c1c(Cl)cccc1Cl	136	-0.7	37	0.91	i	62	-10
COc1ccc(Cn2c(O)c(C=Nc3ccc(C)cc3)c3ccccc3c2=O)cc1	97	0.1	30	0.91	i	128	-4
CCn1c(CC(=O)Nc2cccc(OC)c2)nnc1SCC(=O)Nc1nccs1	99	-2.2	62	0.9	i	60	-4
CCOC(=O)c1sc2ncn(C(C)C(=O)OCC)c(=O)c2c1C (stereo not drawn)	104	-0.2	x	0.93	i	x	-6
COC(=O)c1cc(NC(=O)CSc2nncn2C)cc(C(=O)OC)c1	99	16*	x	1.1	i	x	-3
COc1ccc(NC(=O)CN(C)CC(=O)Nc2ccc(Cl)c(S(=O)(=O)N(C)C)c2)cc1	102	x	x	0.91	i	x	-3
O=C(COc1ccccc1)Nc1ccc(N2CCN(C(=O)c3cccs3)CC2)cc1	104	x	x	0.88	i	x	-7
Cc1[nH]c2ccccc2c1C(=O)COC(=O)c1c(-c2ccccc2Cl)noc1C	105	0.3	20	0.88	i	107	10
O=C(NCC1COc2ccccc2O1)C1C2C=CC3(CN(Cc4cccs4)C(=O)C13)O2 (stereo not drawn)	106	-0.3	5	0.93	i	73	-6
Cc1cc(C)n(-c2nnc(NCc3ccc(Cl)cc3)nn2)n1	101	x	x	0.92	i	x	-4
CNC(=S)Nc1cccc(Cl)c1C	103	x	x	1.1	i	x	-9

Record cards, from the list above.
`CCOC(=O)c1[nH]c(C)c(C(=O)NCc2ccc(OC)cc2)c1C` is listed with RGS16-Gao HTS = 105; GALR2 ag = -2.4; Insulin prom inh = x; HSV augment primary fold = 0.9; HSV augment = i; Insulin prom inh cell count = x; PKD1 inh = 2
`CCn1c(CC(=O)Nc2cccc(OC)c2)nnc1SCC(=O)Nc1nccs1` is listed with RGS16-Gao HTS = 99; GALR2 ag = -2.2; Insulin prom inh = 62; HSV augment primary fold = 0.9; HSV augment = i; Insulin prom inh cell count = 60; PKD1 inh = -4

Next compounds:
SMILES	RGS16-Gao HTS	GALR2 ag	Insulin prom inh	HSV augment primary fold	HSV augment	Insulin prom inh cell count	PKD1 inh
COc1cccc(/C=N/NC(=O)CN(CCc2ccccc2)S(=O)(=O)c2ccc(NC(C)=O)cc2)c1	85	0.9	-13	0.78	i	70	-1
Cc1ccc(-n2c(N)c(C(=O)NCc3ccco3)sc2=S)cc1	102	-1.8	3	1	i	100	-7
Cc1cccc(NC(=O)c2nc[nH]c2C(=O)Nc2ccccc2[N+](=O)[O-])c1	104	0.6	25	0.64	i	97	-15
O=C(/C=C/c1ccccn1)c1cc(Cl)cc(Cl)c1O	90	x	x	0.93	i	x	x
COC(=O)NC(C)N1C(=O)C2C3C=CC(C3)C2C1=O (stereo not drawn)	100	x	x	1	i	x	2
CCOC(=O)c1cc(-c2ccccc2)sc1NC(=O)CN1C(=O)NC(CC)(c2ccccc2)C1=O (stereo not drawn)	117	-1.4	x	0.75	i	x	-1
Cc1cc(C)n2nc(SCC(=O)NC(=O)NCc3ccco3)nc2n1	98	x	x	1	i	x	9
Cc1ccc(C(=O)n2cnnc2N)cc1	112	-3.6	26	0.77	i	116	2
CCOC(=O)C1(Cc2cccc(F)c2)CCN(Cc2cnn(CC)c2C)CC1	95	x	-33	0.9	i	127	-3
O=[N+]([O-])c1cccc(N2Cc3ccccc3C2)c1	100	x	x	0.89	i	x	-6
CCOC(=O)c1ccc(NC(=O)CCSCCc2ccccn2)cc1	107	x	-14	1	i	88	-6
COc1ccccc1NC(=O)COc1ccc(/C=N/NC(=O)CSCc2ccc(Cl)cc2)cc1	96	-1.7	32	x	x	68	-7
COc1cccc(-c2cc(C(F)(F)F)n3ncc(C(=O)O)c3n2)c1	93	-0.2	8	1	i	68	0
Cc1ccc(F)cc1NC(=O)CCC(=O)c1cccs1	108	-0.8	-19	0.91	i	52	-5
O=C(/C=C/c1ccco1)N1CCN(c2ccc(F)cc2)CC1	101	x	x	1	i	x	x
Cc1cccc(C(=O)N(Cc2nc3ccccc3c(=O)[nH]2)C2CCCCC2)c1	101	x	48	0.98	i	193	1
N#Cc1cc2ccccc2nc1SCC(=O)Nc1ccc(S(=O)(=O)N2CCCC2)cc1	102	-1.1	-21	1.2	i	44	0
CCc1cc(C)cc(OCCNC(=O)c2ncn[nH]2)c1	100	-3.1	-369	0.92	i	76	-1
O=C1c2oc3ccc(F)cc3c(=O)c2C(c2ccccc2)N1CC1CCCO1 (stereo not drawn)	101	-1.7	-36	1	i	90	18
Cc1cc(=O)n2[nH]c(CCC(=O)O)nc2n1	101	x	x	0.93	i	x	x
CC1CCc2cc(F)ccc2N1C(=O)CSc1nnc2c(n1)[nH]c1ccc(F)cc12 (stereo not drawn)	102	-1.8	-20	0.91	i	67	10
Nc1ccc(S(=O)(=O)NC2=NCCCCC2)cc1	95	x	x	0.92	i	x	x
Cc1ccccc1NC(NC(=O)c1cccnc1)C(Cl)(Cl)Cl (stereo not drawn)	67	-0.7	-43	0.96	i	111	-8
COc1cc(OC)c(C2C3=C(CCCC3=O)Nc3nc4ccccc4n32)cc1OC (stereo not drawn)	99	0.1	x	1	i	x	-17
CCOc1ccc(/C=C(/NC(=O)c2ccc(Cl)cc2)C(=O)O)cc1OCC	101	x	x	0.92	i	x	x

Other entries follow:
SMILES	RGS16-Gao HTS	GALR2 ag	Insulin prom inh	HSV augment primary fold	HSV augment	Insulin prom inh cell count	PKD1 inh
CCC(CC)C(=O)NCCN1CCN(C(=O)C(CC)CC)CC1	98	-0.5	-5	0.99	i	186	-9
O=C(CSCc1c(F)cccc1Cl)NCCSCc1ccco1	104	x	x	0.79	i	x	6
COc1cc(SC)ccc1C(=O)NCCc1ccccc1	97	-1.7	9	0.82	i	115	-16
Cc1onc(-c2ccccc2)c1C(=O)n1cccn1	93	-1.3	-320	0.9	i	84	-6
CC(C)COC(=O)Nc1nnc(SCCOc2ccccc2)s1	73	-0.9	7	0.85	i	96	14
CCN(CC)S(=O)(=O)c1cccc(NN=c2c(=O)c3ccccc3c2=O)c1	96	x	x	0.79	i	x	x
CCOCCCNC(=O)C(Cc1ccccc1)NS(=O)(=O)c1cccc2nsnc12 (stereo not drawn)	97	x	x	1	i	x	0
CCCCCOc1ccc(NC(=O)C(=O)NCC2CCCN2CC)cc1 (stereo not drawn)	97	x	x	1.1	i	x	-6
O=C(Cn1cnc2c(nnn2Cc2ccc(F)cc2)c1=O)N1CCCCC1	104	-1.4	29	x	x	57	-3
Cc1ccc(OCC(=O)Nc2ccc([N+](=O)[O-])cc2)cc1	108	-0.5	8	x	x	128	-7
O=C(CCCn1c(=S)[nH]c2cc3c(cc2c1=O)OCO3)N1CCN(c2ccccc2F)CC1	95	-3.0	10	0.75	i	125	-2
c1ccc(-c2nnc(N3CCOCC3)c3ccccc23)cc1	101	x	56	0.92	i	89	1
Cc1ccc(CCNC(=O)C2CCC(=O)N2Cc2cccnc2)cc1 (stereo not drawn)	104	-0.8	-16	0.87	i	102	-7
COc1ccc(/C(O)=C2/C(=O)C(=O)N(CCCN(C)C)C2c2ccccc2)cc1OC (stereo not drawn)	104	-1.6	3	0.94	i	121	7
CCc1cccc(NC(=O)c2ccc3c(=O)n4c(nc3c2)CCCCC4)c1	105	x	x	1.1	i	x	x
COc1ccc(-n2c(C)nc3sc4c(c3c2=O)CCCC4)cc1	95	x	x	0.84	i	x	-2
Cc1c(NC(=O)Nc2ccccc2)cccc1[N+](=O)[O-]	101	-1.2	-69	0.88	i	61	9
CC(C)N=C(Nc1ccccc1)c1cccnc1	101	-2.3	12	0.77	i	141	-15
CCc1c(C)nc2ncnn2c1N1CCCC(C(=O)Nc2ccc(NC(C)=O)cc2)C1 (stereo not drawn)	101	-0.6	6	x	x	144	2
COc1ccccc1/C=C(/C(=O)OCC(=O)Nc1ccccc1C(C)C)c1ccccc1	104	-1.3	57	1.1	i	114	-11
O=C(CCc1nc(-c2ccccc2)no1)NCc1cccnc1	103	0.3	-17	0.95	i	175	0
S=C(Nc1ccc(Br)cc1)N1CCN(C2CCCCC2)CC1	102	-2.4	-42	0.82	i	126	-8
Cc1nc(CS(=O)c2ccccc2)cc(N2CCOCC2)n1 (stereo not drawn)	107	-2.5	7	0.93	i	130	2
CCOC(=O)c1ccc(NC(=O)N2CCN(c3ccccn3)CC2)cc1	92	-0.5	35	0.95	i	148	-7
Cc1ccc(CNC(=O)C(=O)Nc2nccs2)cc1	96	x	-25	0.98	i	100	-1

An excerpt of these results, with values under each structure.
Values run as follows: RGS16-Gao HTS, GALR2 ag, Insulin prom inh, HSV augment primary fold, HSV augment, Insulin prom inh cell count, PKD1 inh
- CCN(CC)S(=O)(=O)c1cccc(NN=c2c(=O)c3ccccc3c2=O)c1
  96, x, x, 0.79, i, x, x
- CCc1cccc(NC(=O)c2ccc3c(=O)n4c(nc3c2)CCCCC4)c1
  105, x, x, 1.1, i, x, x

(continued)
SMILES	RGS16-Gao HTS	GALR2 ag	Insulin prom inh	HSV augment primary fold	HSV augment	Insulin prom inh cell count	PKD1 inh
O=C(CC1SCCNC1=O)Nc1ccccc1Cl (stereo not drawn)	105	x	x	0.95	i	x	-5
COC(=O)c1ccccc1Oc1c(F)c(F)nc(N2CCOCC2)c1F	101	-2.2	-60	0.84	i	128	1
CCCOc1ccc(C(=O)NCC(c2ccco2)N(C)C)cc1OC (stereo not drawn)	101	-0.9	x	0.92	i	x	-1
CCCOc1ccc(N2C(=O)CC(NCc3cccs3)C2=O)cc1 (stereo not drawn)	110	-3.7	-5	0.95	i	104	-2
CC(=O)c1cccc(NC(=O)N2CCCc3ccccc32)c1	103	-2.5	38	1	i	94	-6
N=C1S/C(=C\c2ccc(O)cc2)C(=O)N1c1ccc(F)cc1	98	x	36	1	i	140	6
CCOC(=O)C1CCN(C(=O)CN(c2ccc(Cl)c(C(F)(F)F)c2)S(C)(=O)=O)CC1	100	2.3	-40	0.83	i	62	-8
O=Cc1c(SCCO)nc2ccccn2c1=O	107	x	x	0.98	i	x	x
CC(=O)Nc1ccc(CN2CCCC(CO)(Cc3cccc(Cl)c3)C2)cc1 (stereo not drawn)	99	x	x	0.96	i	x	x
CCC(=O)N1CCN(c2ccccc2NC(=O)c2cccc(C)c2)CC1	104	-0.3	-26	1.1	i	121	-6
N#CC(c1ccc(Cl)nn1)c1c(F)cccc1Cl (stereo not drawn)	105	x	10	1	i	103	9
c1ccc(Cc2nnc(Sc3ccccc3)c3ccccc23)cc1	100	-2.6	16	1	i	142	12
CCOC(=O)N1CCN(C(=O)COc2cc(C)c(Cl)c(C)c2)CC1	62	x	x	1.1	i	x	1
O=C(NCC(c1cccnc1)N1CCN(c2ccc(F)cc2)CC1)c1cccc(Cl)c1 (stereo not drawn)	99	-2.8	-7	1.1	i	109	-8
CCOC(=O)N1CCN(Cc2c(O)ccc3ccccc23)CC1	106	x	x	1.1	i	x	x

Bioassay records (PubChem)
